RN4220 kill – kills Staphylococcus aureus RN4220; S. aureus RN4220 growth, OD600, 16 h; inhibition, % (no concentration beside the values); 330,000 tested, 0.33% active; AID 1259311;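 active = z-score of -3 or lower and OD600 up to 0.18 on both plates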;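 note: plate controls were untreated cells for no effect and reference antibiotic for full effect; stock transfer was 100 nL into about 80 µL; one replicate is shown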
BJeLR lethal – BJeLR cell viability loss. BJeLR (HRASV12) viability, CellTiter-Glo ATP luminescence, 48 h; reference of the scale not given here. 300,000 tested, 0.17% active. AID 1554. inhibition, % (no concentration beside the values);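 active = replicate mean above 50%; inconclusive = above 50% but judged a plate artefact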;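 note: 50 nL library stock added to about 25 µL; numbers are from one replicate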
Mtb hypoxia inh – inhibitors of hypoxia-regulated fluorescent reporter in Mycobacterium tuberculosis; fluorescence inhibition, % (no concentration beside the values); 300,000 tested, 0.1% active; AID 1159583; M. tuberculosis hypoxia-regulated fluorescent reporter, fluorescence;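 active = 35 to 45% if threefold the growth effect, above 45% if 1.5-fold the growth effect; inactive = the rest, general growth blockers included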;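 note: wells of about 50 µL received 100 nL stock; 0% = vehicle wells and 100% = reference inhibitor wells; whole bacteria with a GFP reporter of the hypoxia response; strong numbers were not always called active; many hits fall short of the cut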
Bead autofluor – flagged as autofluorescent in microsphere protease counterscreen; compound autofluorescence counterscreen, microsphere flow cytometry; active compounds read high; 360,000 tested, 3.1% active; fluorescence intensity (test concentration not listed);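 active = at least 3 SD above the mean of all compounds, about 16000 in these data; inconclusive = too few beads counted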;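 note: 100 nL of 1 mM stock went into each well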
ugtP null kill – compounds lethal to S. aureus RN4220 ugtP deletion mutant; 330,000 tested, 0.54% active; OD600 growth, 16 h; some inactives read as strong as hits; growth inhibition, % (concentration not given with the values);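 active = z-score under -3 and OD600 up to 0.15 on both plates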;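 note: plate controls were untreated wells for no effect and antibiotic for full effect; wells of about 80 µL received 100 nL stock; the first replicate is given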
PrP UTR inh – suppresses PrP 5' UTR mRNA reporter expression; cell-based PrP 5' UTR mRNA reporter, plate reader; 340,000 tested, 0.35% active; inhibition, % (no concentration beside the values);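 active = every replicate at 50% or more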;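 note: 0 = median of the neutral control wells; tested in H4 reporter cells; numbers are from one replicate; inactives centre near -14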
Mtb hypoxia inh growth – also measured in Mtb hypoxia inh; calls as there; growth inhibition, %; measured here: M. tuberculosis growth (absorbance);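 0% = vehicle and 100% = reference antibiotic; read after six days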
Active calls of the source: *; ? = inconclusive; . = not tested or not shown.

canonical_smiles | RN4220 kill | BJeLR lethal | Mtb hypoxia inh | Mtb hypoxia inh growth | Bead autofluor | ugtP null kill | PrP UTR inh
Cc1cc(C(=O)N2CCCC(N3CCN(c4ccccc4C)CC3)C2)nc(C)n1 (centres undefined) | 1.2 | -4 | 11 | 2 | 6077 | 2 | -9
Cc1ccsc1C=NNc1nc(Cl)c(Cl)cc1Cl | 0.4 | . | 14 | 7 | . | -1 | .
O=C(NC1CCN(C(=S)NCc2ccco2)CC1)NC12CC3CC(CC(C3)C1)C2 | 2.8 | 0 | 10 | -3 | 9473 | 9 | -4
COC(=O)C1=C(c2ccc(OC)c(OC)c2)CC2CCC1N2C(=O)NCc1ccc(F)cc1 (centres undefined) | 0.3 | . | 3 | 6 | . | 9 | .
NC(=O)c1c(NC(=O)c2ccccc2)sc2c1CCc1ccccc1-2 | 6.2 | -7 | -9 | 1 | 11600 | 2 | -86
O=C(NCc1ccccc1C(F)(F)F)C1CC(c2ccccc2C(F)(F)F)=NO1 (centres undefined) | 13 | 3 | 2 | 9 | 2958 | 11 | 10
CC(NC(=O)c1cc(-c2ccccc2)on1)c1ccccc1 (centres undefined) | 0.5 | . | -14 | 2 | 10141 | -4 | -17
CCc1ccccc1NC(=S)N1CCC(C(=O)c2ccc(F)cc2)CC1 | 1.4 | -4 | 6 | 10 | 11172 | 1 | -2
CCN(CC)CCCNC(=O)CCn1nc(-c2ccccc2)ccc1=O | 3.7 | -1 | -4 | 8 | 3921 | 6 | -16
COc1cccc(NC(=O)CN(C)C(=O)C2CC3C=CC2C3)c1 (centres undefined) | -3.5 | . | -2 | 3 | 3831 | -4 | -5
CCOC(=O)COc1cccc2c(=O)n(CC(=O)N3CCc4ccccc43)ccc12 | -6.8 | 7 | 2 | 4 | 4092 | 2 | -15
Cc1ccc(NC(=Nc2ccc(Br)cc2)N2CCOCC2)cc1C | -3.6 | -6 | 6 | 5 | 4333 | 3 | -23
CN(C)CCCN(C(=O)c1ccc2c(c1)CCCC2)c1nc2cc3c(cc2s1)OCO3 | -4.5 | -1 | 1 | 9 | . | -15 | -9
Cc1cccc(S(=O)(=O)Nc2ccc(-c3ccc4nncn4n3)cc2)c1 | 3.7 | 5 | 12 | 10 | 5093 | 4 | -10
CCC1COCCS(=O)(=O)N1Cc1ccccc1 (centres undefined) | . | -2 | . | . | 2621 | . | -2
Cc1ncc([N+](=O)[O-])n1CC(=O)Nc1ccc(Cl)cc1 | -0.1 | 4 | -5 | 3 | 3873 | 9 | -10
CCc1ccccc1N(C(=O)CCC(=O)Nc1cc(C)on1)C(C(=O)NC1CCCC1)c1ccco1 (centres undefined) | 9.1 | -2 | . | . | 2872 | 0 | -9
COc1cccc(NC(=O)c2ccc(CN3CCOCC3)cc2)c1 | 0.5 | -7 | . | . | 4683 | -1 | -46
COc1ccc(C2/C=C\CN(C(=O)C3CCCCC3)CC(=O)N2Cc2ccc(F)cc2)cc1 (centres undefined) | . | -1 | . | . | 3376 | . | -8
CO/N=C/NC(=O)NOCc1c(Cl)cccc1Cl | 14 | 0 | 2 | 4 | 2472 | 8 | -12
CCC1(CC)C(=O)N(c2ccccc2)C(=N)N(c2ccccc2)C1=O | 2.9 | . | -8 | 8 | 3834 | -3 | 2
CC[C@]1(C(=O)OC)[C@H]2C(=O)N(C)C(=O)[C@H]2[C@H]2CN=C(SCc3ccc(C(=O)OC)cc3)N21 | 3.0 | . | -3 | -3 | 3938 | -1 | -13
COc1cccc(NC(=S)NCCc2ccccn2)c1 | 1.8 | 9 | 16 | 2 | 2280 | 4 | -27
Cn1c(=O)c2c(nc(SCC(=O)NC34CC5CC(CC(C5)C3)C4)n2C)n(C)c1=O | 0.3 | 2 | 10 | 8 | 23851* | -1 | -1
CCOC(=O)c1ccc(-n2c(CCC(=O)O)ccc2-c2ccccc2)cc1 | 9.1 | -3 | 14 | 6 | 3605 | 1 | -25
COCCNc1nc(-c2cc(C)c(C)cc2C)cs1 | 3.5 | 1 | 12 | 5 | 4569 | 2 | -16
CCN(CC)C(=O)Cn1c(=O)c2ccccc2n2c(=S)sc(-c3cccc(C)c3)c12 | -3.2 | 5 | 9 | 4 | 2199 | -1 | 11
O=C(COC(=O)c1ccc(CN2CCCC2=O)cc1)Nc1ccc(F)cc1 | 3.2 | . | -3 | 0 | 8587 | 4 | -16
CCCOC1CCCN(Cc2cn(C)nc2-c2ccccc2F)C1 (centres undefined) | 3.9 | 3 | -2 | 4 | 2600 | 7 | 4
CCOc1ccc(C(=O)NCC(=O)Nc2ccncc2)cc1OCC | 2.6 | . | 0 | 5 | ? | 2 | 9

The closing 3 records of the section before open the next one:
canonical_smiles | RN4220 kill | BJeLR lethal | Mtb hypoxia inh | Mtb hypoxia inh growth | Bead autofluor | ugtP null kill | PrP UTR inh
O=C(COC(=O)c1ccc(CN2CCCC2=O)cc1)Nc1ccc(F)cc1 | 3.2 | . | -3 | 0 | 8587 | 4 | -16
CCCOC1CCCN(Cc2cn(C)nc2-c2ccccc2F)C1 (centres undefined) | 3.9 | 3 | -2 | 4 | 2600 | 7 | 4
CCOc1ccc(C(=O)NCC(=O)Nc2ccncc2)cc1OCC | 2.6 | . | 0 | 5 | ? | 2 | 9
CCOc1ccc2nc(SCc3ccccc3C#N)sc2c1 | 2.8 | 6 | 4 | 1 | 11394 | 53 | -32
CCN1C(=O)c2cccc3c(NS(=O)(=O)c4ccc(NC(C)=O)cc4)ccc1c23 | 6.8 | 0 | -6 | 2 | ? | 2 | -11
COc1cc(/C=C/C(=O)Nc2ccc3nc4n(c(=O)c3c2)CCCC4)cc(OC)c1OC | 18 | 8 | 12 | 12 | 4484 | 8 | -12
COc1ccc(C(=O)N/N=C(/C)c2cccc(NC(=O)C(F)(F)F)c2)cc1 | . | -12 | . | . | 9252 | . | -76
COc1ccc(C(C)=O)cc1CSCC(=O)O | -0.3 | -3 | 16 | -7 | 4797 | 8 | 5
CCN(CC)Cc1cc2[nH]c3c4ccc(Cl)cc4ncc3c2cc1OC | 3.2 | 8 | 10 | 7 | 4192 | 3 | -11
CCOc1ccc(C(=O)Nc2sc3c(c2C(=O)OC)CC(C)(C)NC3(C)C)cc1 | -6.3 | 0 | 2 | 8 | 5935 | 9 | -12
COc1cc(NC(=O)/C=C/c2ccccc2[N+](=O)[O-])cc(OC)c1 | 0.1 | -6 | 8 | 3 | 2022 | -7 | -18
COc1ccc(/C=C(\NC(=O)c2ccccc2)C(=O)N/N=C/c2cccnc2)cc1 | . | 5 | . | . | 5555 | . | -13
CCN(c1ccccc1)S(=O)(=O)c1ccc(N2CCN(c3ccc(O)cc3)CC2)nc1 | 17 | . | -6 | -4 | ? | 19 | 23
Cc1ccc(C)c(NC(=S)N2CCN(S(=O)(=O)c3ccccc3)CC2)c1 | 3.2 | 5 | 14 | 1 | 4605 | 7 | 13
CC1CCN(c2nc(-c3ccc(F)cc3)cc(C(F)(F)F)n2)CC1 | 8.3 | -3 | 4 | 5 | 4152 | -4 | -7
O=C1COc2ccc(C(=O)COC(=O)c3c(F)cccc3Cl)cc2N1 | 5.7 | . | 8 | 7 | 5163 | 1 | -7
CCOC(=O)N1CCN(C(=O)c2cccc(OC)c2O)CC1 | 1.8 | 5 | -2 | 7 | 10104 | -4 | -16
COc1ccc(Nc2ccccc2C(=O)O)cc1 | 8.3 | 1 | -5 | 0 | 3478 | 7 | -3
CC(=C\C(=O)O)/C(=C\c1cccc2ccccc12)C(=O)O | 2.0 | -1 | -12 | -17 | 4362 | -8 | .
Cc1ccc(C)c(S(=O)(=O)NCCN2CCOCC2)c1 | 7.1 | -7 | 0 | 9 | 3561 | 11 | -4
Cc1ccc(N(C(=O)c2cccs2)C2C=CS(=O)(=O)C2)cc1 (centres undefined) | -0.6 | 0 | . | . | 4946 | 5 | -28
CC(C)COP(=O)(CNC(=O)CN1C(=O)c2ccccc2S1(=O)=O)OCC(C)C | 1.5 | -19 | . | . | 2380 | -1 | -1
O=C(NCC1CCCN(Cc2cccc(C(F)(F)F)c2)C1)c1ccc(F)cc1 (centres undefined) | -0.4 | 10 | 6 | -4 | 4618 | 9 | -28
CN1C(=S)SC(N2OC3C(=O)N(c4ccccc4)C(=O)C3C2c2ccccc2)C1(C)C (centres undefined) | 14 | 2 | 2 | 4 | . | 1 | .
O=C(Cn1cccn1)N1CCCC(N2CCN(c3cccc(C(F)(F)F)c3)CC2)C1 (centres undefined) | -1.7 | 1 | -2 | 0 | 5408 | 1 | -12
O=C(COC(=O)c1cnccn1)NCc1ccc(Cl)cc1 | 10 | -14 | -1 | -4 | 4410 | 7 | -14
CCOC(=O)Nc1ccc(S(=O)(=O)Nc2nccc(C)n2)cc1 | 6.5 | -4 | 16 | 11 | ? | 5 | -7
CCOC(=O)CCNC(=O)N1CCC(CCC(=O)NCc2ccc(F)cc2)CC1 | 3.1 | 8 | 5 | 1 | 3746 | 11 | -19
CCOC(=O)C1=C(C)NC(=O)NC1c1cccc(O)c1 (centres undefined) | 3.4 | 10 | 8 | 17 | 11449 | 4 | -28
S=c1[nH]cnc2sc(-c3ccccc3)cc12 | . | 3 | . | . | 4103 | . | -14
COC(=O)c1ccc(NC(=O)C(=O)c2c[nH]c3ccccc23)cc1 | 2.4 | -6 | 3 | 2 | 4465 | 0 | -9
O=C(Nc1ccc(F)cc1)c1ccc(Br)c(S(=O)(=O)N2CCOCC2)c1 | -0.4 | 2 | 0 | -2 | 3228 | -2 | -12
COc1ccc(-c2noc(CNC(=O)C(C)Oc3ccccc3)n2)cc1 (centres undefined) | 3.0 | 5 | -1 | -4 | ? | 0 | 5
COc1ccc(/C=C2\SC(=O)N=C2N)cc1 | 4.4 | -3 | 6 | 4 | 2560 | 2 | -31
CCOC(=O)c1ccc(NC(=O)CCNS(=O)(=O)c2cc(Br)cnc2N)cc1 | 2.4 | -2 | 2 | -5 | 4544 | 0 | -1
Cc1c(C(=O)N(CC(C)C)c2c(N)n(Cc3ccccc3)c(=O)[nH]c2=O)sc2nc3n(c(=O)c12)CCC3 | 1.9 | 5 | 7 | -1 | ? | 7 | -15
Cc1ccccc1CNC(=O)CCC(=O)N1CCOc2ccc(Cl)cc21 | 6.5 | -12 | -2 | -1 | 3966 | -8 | -2
CCCCCC(=O)Nc1nnc(CCc2ccccc2)s1 | 7.3 | 5 | 13 | 9 | 3547 | 1 | -34
COc1ccc(N(CC(=O)Nc2cc(Cl)ccc2OC)S(=O)(=O)c2c(C)noc2C)cc1 | 4.1 | 17 | 9 | 5 | 20289* | -18 | -13
Cc1c(O)c(C)c2c(c1O)C(=O)CC(c1ccccc1)O2 (centres undefined) | 4.9 | . | -2 | 9 | . | -22 | .
CNc1ccccc1C(C)(C)c1cc(-c2cccc([N+](=O)[O-])c2)no1 | 3.6 | -2 | 9 | 4 | 4536 | -7 | -20
Cc1ccc(SCC(=O)NC(=O)NCc2ccco2)c(C)c1 | 2.5 | . | 1 | 5 | 19176* | 19 | -20
CCn1c(CCNC(=O)c2ccccc2Cl)n[nH]c1=S | 6.9 | 2 | 12 | 5 | 2750 | 1 | -38
COc1ccc(NC(=O)CSCC(=O)Nc2nnc(C)s2)cc1 | 1.7 | -7 | 5 | -3 | ? | 2 | 3
NC(N)=NN=Cc1ccc(Br)cc1 | -5.3 | . | 17 | -2 | . | 3 | .
COc1ccc(C)cc1S(=O)(=O)N1CCCC(C(=O)N2CCN(c3ccccc3F)CC2)C1 (centres undefined) | 0.7 | 4 | -3 | 5 | ? | 0 | -22
COc1cccc(N2CCN(S(=O)(=O)c3ccc4c(c3)N(C(C)=O)CCO4)CC2)c1 | 1.5 | 3 | 2 | -4 | 4015 | 6 | -24
CCOc1ccc(CCNC(=O)COC(=O)Cn2cnc3ccccc3c2=O)cc1OCC | 1.8 | -10 | -7 | -5 | 3962 | 4 | -13
O=[N+]([O-])c1ccc(N2CCN(S(=O)(=O)c3ccccc3)CC2)c2cccnc12 | 1.7 | -2 | -10 | 6 | 4279 | 6 | -6

Source: PubChem (several laboratories)
